Screening results from PubChem.
UCH37 inh: inhibitors of human deubiquitinating enzyme UCH37 | inhibition, % (test concentration not listed) | purified proteasome/UCH37, Ub-AMC cleavage fluorescence | AID 588478 | Q9Y5K5 | 330,000 compounds, 0.33% hits;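 active = mean of two replicates above 20%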;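 also: 0% = compound-free wells with enzyme and 100% = wells lacking proteasome; stock transfer was 100 nL into about 20 µL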
Target sequence (Q9Y5K5 whole entry, looked up): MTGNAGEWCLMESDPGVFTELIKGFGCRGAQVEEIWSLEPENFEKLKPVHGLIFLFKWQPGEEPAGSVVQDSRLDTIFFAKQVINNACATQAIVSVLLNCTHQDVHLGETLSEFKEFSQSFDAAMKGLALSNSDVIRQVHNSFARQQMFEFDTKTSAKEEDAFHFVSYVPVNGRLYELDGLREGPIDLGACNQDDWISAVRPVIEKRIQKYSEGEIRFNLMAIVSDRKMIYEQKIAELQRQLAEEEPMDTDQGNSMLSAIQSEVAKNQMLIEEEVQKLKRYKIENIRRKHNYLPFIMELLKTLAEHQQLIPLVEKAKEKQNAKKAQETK
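assay system = human UCH37 enzyme supplied as purified proteasome complex | amount = proteasome at 0.15 nM in the dispensed enzyme solution | schedule = 30 min compound-proteasome preincubation then 25 min substrate reaction, room temperature | measured by = fluorescence, ex 355 nm, em 460 nm | benchmarks = no-proteasome wells (full inhibition) and compound-free wells (no inhibition)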
ALR inh: inhibitors of human sulfhydryl oxidase ALR; 290,000 compounds, 3.8% hits; AID 485317; P55789; inhibition, % (concentration not given with the values); purified ALR, DTT oxidation, H2O2 HRP-luminol luminescence;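 active = mean and each replicate at 75% or more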;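 also: stock transfer was 7.5 nL into about 7.5 µL; 0% = neutral wells and 100% = wells with inactivated enzyme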
Ecoli rRNA inh: inhibitors of bacterial rRNA selective over humanized ribosomes. E. coli WT GFP vs humanized-ribosome RFP mutants, fluorescence, 24 h; active compounds read low; DMSO median 0, no signal -100. 350,000 compounds, 1.6% hits. AID 720706. GFP signal change (wild-type ribosome), % (concentration not given with the values);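 active = significant combined selectivity score with lowered wild-type GFP, culture density cut under 30%, mutant RFP and density less affected; inactive = any of these conditions unmet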; also: one replicate is shown; some compounds called inactive have numbers as strong as hits
B2AR ag: activates human beta-2 adrenergic receptor causing internalization. Am2.2-beta2AR cells, FAP receptor internalization, flow cytometry; reference of the scale not given here. response, % (test concentration not listed). 340,000 compounds, 0.43% hits. AID 504454;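 active = response above a set limit, near 3 SD of response in nonfluorescent compounds, cut at about 42% in these data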;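 also: stock transfer was 100 nL into about 11 µL; a reference agonist was the positive control; negative values mostly stem from fluorescent compounds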
FGF22 binding: FGF22 (human) thermal shift binding; Q9HCT0; recombinant FGF22 thermal shift, SYPRO orange fluorescence; percent of sucrose octasulfate shift, DMSO zero; calls only at 9.99 µM; 340,000 compounds, 1.5% hits;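 active = melting point raised past a set limit in the mean and every replicate; three in four hits are not shown here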
Target sequence (Q9HCT0 whole entry, looked up): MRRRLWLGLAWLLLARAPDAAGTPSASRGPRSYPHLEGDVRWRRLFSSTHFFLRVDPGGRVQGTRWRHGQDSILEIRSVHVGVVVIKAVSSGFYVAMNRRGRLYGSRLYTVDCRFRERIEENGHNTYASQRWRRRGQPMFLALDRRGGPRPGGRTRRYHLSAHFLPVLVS
HNF4A DNA FP: change in binding of human HNF4 alpha to DNA. P41235. HNF4a-FITC DNA binding, fluorescence polarization, 1 h. activity change, % at 10 µM. 360,000 compounds, 0.3% hits. AID 1224865; in the data active = activity change above about 30%, passing the limit was not always enough;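 also: controls were the assay level and a saturating level of protein; the project sought stronger binding though the title names inhibitors; some compounds called inactive have numbers as strong as hits; positive values seem to mean higher polarization but the record does not say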
Target sequence (P41235 whole entry, looked up): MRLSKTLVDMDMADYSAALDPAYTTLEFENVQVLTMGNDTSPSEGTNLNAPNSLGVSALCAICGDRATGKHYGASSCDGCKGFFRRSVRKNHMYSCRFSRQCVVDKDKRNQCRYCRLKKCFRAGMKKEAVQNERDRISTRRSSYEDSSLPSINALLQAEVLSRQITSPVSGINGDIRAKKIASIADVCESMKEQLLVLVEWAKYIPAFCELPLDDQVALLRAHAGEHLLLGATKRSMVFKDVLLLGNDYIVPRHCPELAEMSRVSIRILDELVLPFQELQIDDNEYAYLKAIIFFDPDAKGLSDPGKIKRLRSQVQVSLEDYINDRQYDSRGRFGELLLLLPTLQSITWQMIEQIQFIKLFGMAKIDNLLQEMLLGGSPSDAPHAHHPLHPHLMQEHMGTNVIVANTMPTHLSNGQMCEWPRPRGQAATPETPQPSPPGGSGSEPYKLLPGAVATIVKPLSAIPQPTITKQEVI
Ecoli growth: blocks Escherichia coli growth; OD600 absorbance (concentration not given with the values); 330,000 compounds, 0.21% hits; OD600, 23 h; active compounds read low;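 active = OD600 absorbance below the run mean of sample wells minus 3.6 SD, in any replicate, cut at about 0.56 in these data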;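 also: stock transfer was 300 nL into about 60 µL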
Ecoli rRNA inh OD600: also measured in Ecoli rRNA inh; calls as there; OD600 change, %; measured here: OD600 growth;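 optical density of the mix in the first replicate; 0 = DMSO median and -100 = no signal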
Ecoli rRNA inh RFP: also measured in Ecoli rRNA inh; calls as there; RFP signal change, %; measured here: RFP humanized mutant strains;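 first replicate; 0 = DMSO median and -100 = no signal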
* = called active by the depositor; i = inactive; . = no result given. Only part of the results is shown (hit frequency here may not be typical).

The first 2 records, to show the layout:
cpd	Ecoli growth	ALR inh	UCH37 inh	HNF4A DNA FP	B2AR ag	Ecoli rRNA inh	FGF22 binding	Molecule	Ecoli rRNA inh OD600	Ecoli rRNA inh RFP
1	0.65	.	-83	-0.6	-3	.	i	COc1ccc(-c2coc3cc(OC(C)=O)c(OC)cc3c2=O)cc1	.	.
2	0.69	-2	-1.5	-2.8	-3	1	i	Cc1ccccc1NC(=O)Cc1nc(COC(=O)CCC(=O)c2ccccc2)cs1	4	2.1

The list itself, repeating the preview:
cpd	Ecoli growth	ALR inh	UCH37 inh	HNF4A DNA FP	B2AR ag	Ecoli rRNA inh	FGF22 binding	Molecule	Ecoli rRNA inh OD600	Ecoli rRNA inh RFP
1	0.65	.	-83	-0.6	-3	.	i	COc1ccc(-c2coc3cc(OC(C)=O)c(OC)cc3c2=O)cc1	.	.
2	0.69	-2	-1.5	-2.8	-3	1	i	Cc1ccccc1NC(=O)Cc1nc(COC(=O)CCC(=O)c2ccccc2)cs1	4	2.1
3	0.7	99*	4.9	0.7	-6	-22	i	Cn1c(/C(C#N)=C/c2ccc(O)cc2)nc2ccccc21	-5	16
4	.	.	.	-0.8	.	-20*	i	CC1(C)CC(=O)C=C(c2ccc(COC(=O)c3ccccc3)cc2)C1=O	-6.6*	-0.9*
5	0.66	.	-48	0.7	12	-4	i	CC(C)NC(=O)NC(=O)CN1c2cccc3cccc(c23)S1(=O)=O	-7	-7.6
6	0.71	-9	-8.3	-6.5	4	.	.	Cc1ccccc1Cn1cc(NC(=O)c2cc(-c3cccs3)on2)cn1	.	.
7	0.72	-5	0.1	1.7	2	.	.	COc1cc(C2NC(=O)NC(C)=C2C(=O)OC(C)(C)C)ccc1OCC(N)=O (stereo unspecified)	.	.
8	0.66	93*	4.8	2.0	-1	1	i	Cc1c(Cl)c(-c2n[nH]c(=S)n2CC(C)C)nn1C	8	-1.1

Copied from the list:
COc1ccc(-c2coc3cc(OC(C)=O)c(OC)cc3c2=O)cc1 | UCH37 inh = -83
Cc1ccccc1NC(=O)Cc1nc(COC(=O)CCC(=O)c2ccccc2)cs1 | HNF4A DNA FP = -2.8
Cc1ccccc1Cn1cc(NC(=O)c2cc(-c3cccs3)on2)cn1 | ALR inh = -9
Cc1c(Cl)c(-c2n[nH]c(=S)n2CC(C)C)nn1C | HNF4A DNA FP = 2.0
CC(C)NC(=O)NC(=O)CN1c2cccc3cccc(c23)S1(=O)=O | Ecoli rRNA inh = -4
Cn1c(/C(C#N)=C/c2ccc(O)cc2)nc2ccccc21 | ALR inh = 99*

Remaining list, next part
cpd	Ecoli growth	ALR inh	UCH37 inh	HNF4A DNA FP	B2AR ag	Ecoli rRNA inh	FGF22 binding	Molecule	Ecoli rRNA inh OD600	Ecoli rRNA inh RFP
9	0.71	98*	4.2	-0.8	4	.	.	O=C(CSc1nnc(Cc2ccccc2)n1-c1ccccc1)NNC(=O)Cc1ccccc1	.	.
10	.	-4	1.8	0.0	6	25	i	O=C(C[C@H]1C/C=C\CCC(=O)O[C@@H](c2ccccc2)CNC1=O)NCCO	7	-1.2
11	.	-11	.	-1.1	0	11	i	COc1ccc(Cl)cc1NC(=O)C/C(C)=N/NC(=O)c1ccc(O)cc1	7	2.5
12	0.65	1	0.6	-0.1	-4	3	i	Cc1cc(C(=O)NCC(=O)Nc2c(C)cccc2C)c2ccccc2n1	10	-1.0
13	0.74	-9	13	-0.5	6	7	i	O=c1cc(N2CCc3ccccc3C2)[nH]c(=O)n1-c1ccccc1Cl	4	-2.8
14	0.64	-12	6.3	1.3	-10	13	i	CC(=O)c1ccccc1Oc1ncnc(N)c1[N+](=O)[O-]	13	1.4
15	0.64	-1	0.1	1.6	8	5	i	COc1ccc(C(CC(=O)NCCN2CCOCC2)NS(=O)(=O)c2ccc(C)cc2)cc1 (stereo unspecified)	8	2.2
16	0.72	-3	0.7	0.0	6	.	.	Cc1ccc(-c2nnc3n2CCCCC3)cc1	.	.
17	.	-3	.	0.3	5	-16	i	CC(C)C(=O)N1CCN(c2ccccc2NC(=O)c2cccc3ccccc23)CC1	-22	-3.6
18	.	.	.	0.7	.	2	i	CCOC(=O)C1(C)CCCN(C(=O)c2cccs2)C1 (stereo unspecified)	12	-0.2
19	0.72	0	4.9	-1.5	0	.	.	CN(C(=O)c1cccc(C#N)c1)c1nnc(C2CCOC2)s1 (stereo unspecified)	.	.
20	0.64	3	1.8	-4.7	-3	-3	i	O=C(NCc1ccc2c(c1)OCO2)c1c(-c2ccsc2)sc2ccccc12	5	-0.6
21	0.71	.	5.6	2.2	-7	.	.	Cc1onc(-c2ccccc2)c1C(=O)N1CCN(S(=O)(=O)c2ccc3c(c2)OCCO3)CC1	.	.
22	0.73	-11	1.1	1.9	-2	12	i	CCOC(=O)N1CCC(N(CCN(C)C)C(=S)Nc2cccc(OC)c2)CC1	3	6.4
23	0.62	.	1.9	2.0	-19	-7	i	COc1ccc(C(=O)N2N=C(c3ccccc3)CC2(O)C(F)(F)F)cc1 (stereo unspecified)	-14	0.9
24	0.7	.	-26	13	-7	40	i	COCCCn1c(=O)/c(=C/c2ccccc2OC(F)F)s/c1=C(\C#N)C(=O)NCCOC	12	1.4
25	0.72	25	8.1	23	5	.	.	COc1ccc(O)c(C(=O)c2cc(C#N)c(=O)n(-c3c(C)n(C)n(-c4ccccc4)c3=O)c2)c1	.	.
26	0.7	-2	2.6	-6.4	-11	.	.	CCC(C)NS(=O)(=O)c1ccc(OCC(=O)Nc2ccc3c(c2)OCO3)cc1 (stereo unspecified)	.	.
27	0.64	-7	7.6	2.1	-7	-57	i	Cc1cccc(C)c1NC(=O)C[N+](C)(C)CC(O)COc1cccc2ccccc12 (stereo unspecified)	-80	-32
28	0.65	.	3.2	2.7	-2	.	.	CCOC(=O)CSc1nnc(CNC(=O)c2cccs2)n1-c1cccc(C)c1	.	.
29	0.71	-7	-0.2	0.2	-13	3	i	CC(C)(C)C1COc2ccccc2N1C(=O)c1cccc(Cl)c1 (stereo unspecified)	11	-0.6
30	0.68	-11	-3.8	0.9	2	-6	i	Cn1c(SCc2cccc(F)c2)nnc1-c1ccncc1	-16	-3.9
31	0.66	-4	3.3	2.3	2	-2	i	CN(C(=O)CCc1nnc(Cc2ccc(-c3ccccc3)cc2)o1)C1CCOCC1	-7	-3.2
32	0.73	8	3.4	2.8	9	.	.	CC(=O)NS(=O)(=O)c1ccc(NC(=S)NC(=O)C(C)(C)C)cc1	.	.
33	0.71	72	5.9	-1.8	7	9	i	CC(C)c1ccc(NC2CCCN(C(=O)CN3CCOC3=O)C2)cc1 (stereo unspecified)	14	1.5
34	0.71	3	0.1	8.9	3	3	i	CC(=O)c1cccc(NC(=O)C(OC(=O)c2cccc(S(=O)(=O)N(C)c3ccccc3)c2)c2ccccc2)c1 (stereo unspecified)	11	2.8
35	0.69	.	5.9	3.5	1	-10	i	O=C(O)c1ccccc1SCc1csc(-c2ccccc2)n1	-1	2.4
36	0.68	-13	1.3	-6.0	2	15	.	CC(C)CCNC(=O)C(c1ccco1)N(C(=O)Cn1nnc2ccccc21)c1ccc2c(c1)OCO2 (stereo unspecified)	14	-0.6
37	0.68	-9	2.9	-4.0	-3	6	i	Cc1nnc(SCCCCSc2nnc(C)c(=O)[nH]2)[nH]c1=O	1	-1.7
38	0.69	-12	2.9	3.6	12	-18	i	CCOc1ccc(CCNC(=O)Cn2cccc2C(=O)c2ccccc2C)cc1OCC	-11	-8.7
39	0.64	-15	5.3	-1.0	6	12	i	COc1ccc(NC(=O)N(Cc2cc3ccc(OC)cc3[nH]c2=O)CC2CCCO2)cc1 (stereo unspecified)	16	3.3
40	0.75	98*	-1.1	1.2	-7	.	.	Cc1ccc2c(c1)NC(=O)c1cccnc1N2	.	.
41	0.65	1	0.4	0.2	-4	.	.	CCN(CC)C(c1ccc(F)cc1)c1nnnn1CC1CCCO1 (stereo unspecified)	.	.
42	0.68	.	3.9	-2.1	-9	0	i	O=C(c1cccc(-n2cccc2)c1)N1CCN(S(=O)(=O)c2ccccc2Br)CC1	0	-0.1
43	0.73	-5	-53	1.0	-10	.	.	c1ccc(-c2cnc(-c3cccnc3)o2)cc1	.	.
44	0.68	-2	-471	-0.4	6	.	i	COc1ccc(-c2cc(=O)c3ccccc3o2)cc1	.	.
45	.	-2	.	-2.2	10	.	.	Cc1ccnn1CC(=O)N/N=C/c1ccc2c(c1)OCO2	.	.
46	0.68	3	-0.4	-1.9	-4	-20	i	CCOCCCNC(=S)N1CCN(c2nc(-c3ccccc3)cs2)CC1	-23	-0.2
47	.	.	.	-4.1	.	4	i	Cn1c(=O)c2cc(NC(=S)NCc3ccccc3F)ccc2n1Cc1ccccc1	-8	2.8
48	0.67	7	1.7	4.3	-7	6	i	O=C(Nc1ccccc1)c1ccccc1NC(=O)c1ccccc1C(=O)O	2	1.5

Down the list, quoted from above.
Entries 41 to 47 in FGF22 binding read ., i, ., i, ., i, i

Next part.
cpd	Ecoli growth	ALR inh	UCH37 inh	HNF4A DNA FP	B2AR ag	Ecoli rRNA inh	FGF22 binding	Molecule	Ecoli rRNA inh OD600	Ecoli rRNA inh RFP
49	.	-1	.	-0.6	-7	1	i	CCCCCCC(C)OC(=O)Nc1cccc2ccccc12 (stereo unspecified)	3	1.7
50	0.66	2	4.5	0.4	-15	.	.	Cc1cc(C)n2nc(SCC3COc4ccccc4O3)nc2n1 (stereo unspecified)	.	.
51	0.69	-12	-1.4	2.6	-9	16	i	CCCn1c(SCC(=O)NC2CC2)nnc1-c1cccs1	7	4.7
52	.	.	.	-1.0	2	6	i	O=C(CCC(C(=O)O)N1C(=O)c2ccccc2C1=O)Nc1ccccc1 (stereo unspecified)	9	-1.9
53	0.7	-4	-79	.	.	.	.	COCCCn1c2nc3ccccc3nc2c2c(=O)n(Cc3ccccc3Cl)cnc21	.	.
54	0.69	-2	3.5	0.4	0	8	i	O=C(NCCc1ccccn1)C1CCN(S(=O)(=O)c2ccc(Cl)cc2)CC1	0	1.9
55	.	-3	0.4	3.7	-5	-2	i	CCC/C(=C1/c2ccccc2C(=O)N1c1ccccc1)c1cnc(OC)nc1	4	-2.5
56	.	.	.	0.1	.	-34	i	COc1ccc(OC)c(CN2C(=O)c3ccccc3C2c2nnnn2Cc2ccccc2)c1 (stereo unspecified)	-28	-3.4
57	0.64	-17	2.3	-2.5	-5	9	i	O=C(c1cc([N+](=O)[O-])ccc1Cl)N1CCN(Cc2ccccc2)CC1	6	2.4
58	0.71	.	2.9	-2.1	-3	-3	i	C[C@H](NS(=O)(=O)c1ccc2c(c1)OCCCO2)C(=O)N1CCN(c2ccc(F)cc2)CC1	-7	3.8
59	0.66	1	4.7	1.0	7	-9	i	O=C(CCNC(=O)c1ccccc1)NNC(=O)COc1ccccc1Cl	-21	-6.2
